TRPML1 inh = blocks the human TRPML1 channel; AID 624415; 0.02% of 390,000 active; activity change, negative = inhibition, % (concentration not given with the values); TRPML1-inducible cells, Ca2+ dye fluorescence, FDSS; stronger effect = lower value; inhibition of EC80 agonist-evoked calcium signal; Q9GZU1; in the data active means activity change below about -50%; inconclusive means about -30% to -50%; inactive means above about -30%;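 further: stimulus is agonist 54-4 at its EC80 concentration; on the % scale 0 is the no-effect control and ±100 the full control effect; compound concentration not given in the record; the text of the record puts the active cut at -80%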
Target sequence (Q9GZU1 whole entry, looked up): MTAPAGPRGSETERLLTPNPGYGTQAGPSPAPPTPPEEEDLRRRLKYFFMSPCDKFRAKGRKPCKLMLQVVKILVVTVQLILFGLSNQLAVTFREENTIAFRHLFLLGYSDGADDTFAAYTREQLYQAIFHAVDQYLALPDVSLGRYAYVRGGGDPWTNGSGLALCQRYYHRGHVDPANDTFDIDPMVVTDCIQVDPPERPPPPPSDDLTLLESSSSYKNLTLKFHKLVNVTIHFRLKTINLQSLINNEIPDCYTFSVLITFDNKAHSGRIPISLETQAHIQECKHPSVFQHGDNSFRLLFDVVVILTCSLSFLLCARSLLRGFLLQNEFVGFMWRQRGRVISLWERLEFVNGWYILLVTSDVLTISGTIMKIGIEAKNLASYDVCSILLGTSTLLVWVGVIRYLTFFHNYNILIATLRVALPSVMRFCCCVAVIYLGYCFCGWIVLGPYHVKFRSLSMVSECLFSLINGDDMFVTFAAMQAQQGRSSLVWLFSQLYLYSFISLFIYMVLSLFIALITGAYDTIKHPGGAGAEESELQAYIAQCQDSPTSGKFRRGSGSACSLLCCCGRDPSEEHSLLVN
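Tet-induced TRPML1-DL cells loaded with Ca8 no-wash calcium dye were read kinetically on FDSS. Compound addition was followed by EC80 agonist 54-4 (4 uM final); inhibition was read over 110 s.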
CtBP-E1A inh = blocks the CtBP interaction with E1A | AlphaScreen GST-E1A/His-CtBP binding, 1536-well; stronger effect = lower value; control for the full effect not named in the record | activity change, % (concentration not given with the values) | 0.49% of 340,000 active | AID 651724; in the data active means activity change below about -65%; inconclusive means about -30% to -65%; inactive means above about -30%; further: on the % scale 0 is the no-effect control and ±100 the full control effect
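In 5 uL wells, 23 nL compound meets equimolar GST-E1A and His-CtBP (5X stock 125 nM each) for 2 h, 37 °C. Beads (5X, 50 ug/mL) then 1 h, 37 °C, dark.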
PINK1 modulator = changes PINK1 expression; PINK1 immunofluorescence, high-content cytometry, 24 h; Potency, µM (top dose mostly 76.6 µM), without a hit: at the top dose activation (PINK1 increase), usual class: activators; 0.2% of 410,000 active; AID 624263; active = well fitted activation curve with a large enough effect; inconclusive = small, poorly fitted or top-dose-only effect; inactive = flat fitted curve, though single readings scatter; cell line not stated here;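 further: potency means the concentration at half of the fitted maximal effect; % of control where 0% means no effect; nearly all actives have a fitted effect of over 65% in size; a mitochondrial uncoupler was the plate control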
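PINK1 protein level read as immunofluorescence by microplate cytometer in a fixed, stained stable cell line after 24 h exposure to five compound concentrations, with CCCP as control.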
D2 agonist = agonists of human D2 dopamine receptor (beta-arrestin); P14416; DiscoveRx PathHunter D2 beta-arrestin, luminescence, 90 min; 100% = 57 uM dopamine signal; activation, % (concentration not given with the values); 0.084% of 360,000 active; AID 624465; in the data active = activation above about 40%; inconclusive = about 15% to 40%; inactive = below about 15%; further: compound concentration not given in the record; the text of the record calls up to 30% inactive
Target sequence (P14416 whole entry, looked up): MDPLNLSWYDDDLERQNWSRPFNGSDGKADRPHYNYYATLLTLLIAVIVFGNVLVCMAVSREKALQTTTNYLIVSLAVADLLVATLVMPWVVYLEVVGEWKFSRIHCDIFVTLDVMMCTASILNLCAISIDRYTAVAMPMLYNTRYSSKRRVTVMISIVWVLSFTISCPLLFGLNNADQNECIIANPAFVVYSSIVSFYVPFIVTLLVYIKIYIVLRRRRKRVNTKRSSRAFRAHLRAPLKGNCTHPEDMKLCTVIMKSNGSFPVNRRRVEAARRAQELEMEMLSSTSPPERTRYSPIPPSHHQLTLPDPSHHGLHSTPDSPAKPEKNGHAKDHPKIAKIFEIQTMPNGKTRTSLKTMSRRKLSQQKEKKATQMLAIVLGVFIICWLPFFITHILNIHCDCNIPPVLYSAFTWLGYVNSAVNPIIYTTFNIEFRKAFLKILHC
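Agonist mode: compounds alone added to overnight-plated D2 PathHunter cells for 90 min at 37 C, with 57 uM final dopamine (EC100) defining full response. Beta-arrestin recruitment detected by chemiluminescent reagent, read after 1 h at ambient temperature.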
TRPML1 agonist = agonists of human TRPML1 channel; Q9GZU1; TRPML1-expressing cells, Ca2+ dye fluorescence, FDSS; host cell line not named in the record; reference of the full effect not given here; activation, % (no concentration beside the values); 0.12% of 410,000 active; in the data active = activation above about 50%; inconclusive = about 30% to 50%; inactive = below about 30%; further: 0% is about no effect; the text of the record puts the active cut at 80%
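In this qHTS format, compounds were pin-transferred onto Ca8-dye-loaded TRPML1-DL cells induced with Tet overnight, and intracellular Ca2+ fluorescence was recorded kinetically for 110 s after a 10 s baseline. A subsequent 4uM final 54-4 (EC80) addition followed by a second 110 s read served as the antagonist phase.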
Six1-Eya2 inh = blocks human Six1 binding to Eya2. AlphaScreen GST-Six1/His-Eya2 binding, biochemical; stronger effect = lower value; control for the full effect not named in the record. activity change, % (test concentration not listed). 0.56% of 360,000 active. AID 651725; in the data active = activity change below about -65%; inconclusive = about -30% to -65%; inactive = above about -30%; further: on the % scale 0 is the no-effect control and ±100 the full control effect; compound concentration not given in the record
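AlphaScreen with GST-Six1 and His-Eya2 (5X mix: 250 nM and 500 nM), glutathione donor and nickel acceptor beads; buffer 50 mM Tris pH 8.0, 300 mM NaCl, 1 mM TCEP; 1 h at 37 C in the dark.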
* hit, by the source's call; ? = inconclusive; . = not tested or not shown; & = joins results of further samples; [ ] = another dose, or the depositor's remark.

Values run as follows: TRPML1 inh | CtBP-E1A inh | PINK1 modulator | D2 agonist | TRPML1 agonist | Six1-Eya2 inh
CN1C(=O)c2oc3ccccc3c(=O)c2C1c1cccnc1 (centres undefined)
    4 | -1 | 0.4% | -2.1 | 1.0 | 3
CCCC(=O)c1cc(F)c(N2CCN(CCC#N)CC2)cc1C
    8 | 0 | 0.3% | -1.1 | -0.2 | 4
O=C(C[C@H]1C[C@H](C(=O)N2CCOCC2)[C@@]2(CCC3CCCC3)c3[nH]c4ccc(Cl)cc4c3CCN2C1=O)NCCN1CCOCC1
    50 | 1 | 0.2% | 0.0 | -0.5 | -1
O=C(Nc1ccccc1)c1cc([N+](=O)[O-])ccc1Cl
    48 | 5 | -0.3% | 13 | -1.0 | -4
COCCOC(=O)N/C=C\c1nc2ccccc2c(=O)[nH]1
    -9 | -12 | 8.3% | -5.1 | 0.1 | -1
COC(=O)c1ccc2c(c1)C(=O)N(C1CCCCC1)C2=O
    -19 | -1 | 8.4% | -1.9 | -0.3 | 11
Fc1ccccc1NC(=S)NCc1ccc(Cl)cc1
    15 | -2 | 1.5% | 1.5 | 1.0 | 6
COCC(C)n1c(SCC(=O)N2CC(=O)Nc3ccccc32)nc2ccccc2c1=O (centres undefined)
    10 | . | 4.1% | 15 | -0.1 | -21
CC/C(=N\Nc1ccc([N+](=O)[O-])cc1[N+](=O)[O-])c1ccc(O)cc1
    -3 | . | 2.6% | 12 | 2.4 | -29
Fc1cccc(Cc2c(-c3cccc(Cl)c3)nc3ccc(Cl)cn23)c1
    53 | -19 | 7.4% | 2.2 | 2.4 | 5
Cc1ccc(-n2ncc(Cl)c2C(=O)NC2CC2)cc1
    -7 | 12 | 4.4% | 2.0 | 1.2 | 7
CCN(CC)S(=O)(=O)c1ccc2[nH]c(=O)cc(C(=O)NCC3CCCO3)c2c1 (centres undefined)
    -1 | 4 | 3.5% | 1.3 | -0.1 | 4
COc1c2ccoc2c(OC)c2oc(=O)ccc12
    . | 2 | -0.6%&1.3% | 2.4 | . | -1
Cc1ccc(S(=O)(=O)N2C[C@H]3[C@H]4C(=O)N(Cc5ccccc5)C(=O)[C@H]4CC(=O)[C@H]3[C@@H]2c2ccccc2Cl)cc1
    . | -1 | 0.5% | 3.0 | 0.6 | -4
O=C(Nc1ccc2c(c1)OCO2)C1CCN(S(=O)(=O)c2cccs2)CC1
    3 | -4 | ? | 3.4 | 0.4 | -23

Going on with the list:
Values run as follows: TRPML1 inh | CtBP-E1A inh | PINK1 modulator | D2 agonist | TRPML1 agonist | Six1-Eya2 inh
CCC(C)CCN1CCN=C1Nc1ccccc1 (centres undefined)
    10 | 1 | -0.1% | -4.6 | -0.1 | -2
COc1ccc(CNC(=O)c2sc(=S)n(-c3ccc(OC)cc3)c2N)cc1
    1 | -4 | 0.7%[38.3 µM] | -3.0 | -0.3 | -10
O=C(NCCN1CCN(c2ccccc2)CC1)c1ccccc1F
    -12 | 5 | 4.1% | ? | -0.6 | 11
COc1cc(CC(=O)N(CC(C)C)C2CCS(=O)(=O)C2)cc(OC)c1OC (centres undefined)
    -12 | 0 | -1.7% | -5.9 | -0.4 | 3
O=C(O)c1ccc(S(=O)(=O)N2CCCCCC2)cc1
    -3 | 4 | 0.3% | -1.9 | -0.6 | 4
CCc1cccc(C)c1NC(=O)CSc1nc2ccccc2nc1N1CCOCC1
    0 | . | 1.8% | . | 1.4 | .
N/C(=N\OC(=O)CSc1ccccc1)c1ccccn1
    -7 | 9 | -1.2% | -1.1 | 0.7 | 7
COc1ccc(C(NC(=O)C2CCN(CCOc3ccccc3)CC2)c2ccccn2)cc1 (centres undefined)
    -4 | -8 | -0.1% | -3.6 | 0.2 | 1
O=C(O)CCc1nn2c3ccccc3n(CCO)c2nc1=O
    15 | 9 | 2.7% | -3.0 | -0.4 | 5
CCN(CC)c1ccc(NC(=O)CN2CCN(S(=O)(=O)c3ccc(C(C)C)cc3)CC2)cc1
    -3 | . | -1.0% | . | 1.2 | .
O=C1c2nc3cc(-c4ccco4)[nH]n3c(=O)c2CN1C1CCCCC1
    3 | . | -0.5% | -11 | 0.5 | 0
Cc1csc2nc(COC(=O)c3ccc(NC(=O)c4ccccc4Br)cc3)cc(=O)n12
    -15 | . | -1.3% | . | 0.6 | .
Cc1ccccc1OCC(O)CNC1CCC(NCC(O)COc2ccccc2C)CC1 (centres undefined)
    13 | -19 | -2.0% | 12 | 0.3 | 2
Cc1c(C)c2ccc(OC(C)C(=O)N3CC[C@@]4(O)CCCC[C@H]4C3)cc2oc1=O (some centres undefined)
    . | 0 | 1.3% | -5.0 | . | 0
CSc1ccc(NC(=O)C2(C)CCN2C(=O)Cc2ccc(C(C)(C)C)cc2)cc1 (centres undefined)
    . | -12 | 7.5% | 7.9 | -0.5 | -13

More structures
Structure	TRPML1 inh	CtBP-E1A inh	PINK1 modulator	D2 agonist	TRPML1 agonist	Six1-Eya2 inh
COc1ccc(-c2ccc(CNc3ccc4[nH]c(=O)[nH]c4c3)o2)cc1Cl	2	.	3.2%	.	-0.1	.
O=C1CCC(/C=C/c2ccccc2)=NN1Cc1ccc(Cl)c(Cl)c1	-3	10	-0.1%	-0.6	0.3	10
COc1cccc(C2C(C(=O)c3ccco3)=C(O)C(=O)N2CCN(C)C)c1OC (centres undefined)	11	-1	0.6%	-1.1	2.2	2
COc1ccc2[nH]c(C(=O)O)c(CCN3C(=O)c4ccc(C(=O)O)cc4C3=O)c2c1	8	8	1.2%	-1.5	-1.0	-2
Cc1ccc(C(=O)N/N=C\c2ccc([N+](=O)[O-])s2)cn1	-2	-1	1.5%	3.5	0.6	2
CCOC(=O)/C=C1\CN(CCC(C)C)S(=O)(=O)c2ccccc21	-2	2	-0.8%	-0.4	-0.3	7
Cc1cccc2cc(CN(CC3CCCO3)S(=O)(=O)c3ccccc3)c(=O)[nH]c12 (centres undefined)	11	4	0.6%	0.5	-0.8	0
CCN(CCN1CCCC1)C(=O)c1cc(COc2ccccc2SC)on1	-7	-7	-1.1%	-2.3	0.2	9
CCCC(C)NS(=O)(=O)c1ccc(OC)c(C)c1 (centres undefined)	16	-13	.	0.0	0.8	-2
COc1cc(/C=N/NC(=O)c2ccc(CSc3nc4ccccc4[nH]3)cc2)ccc1O	6	.	5.1%	1.4	0.7	-16

Additional entries.
Structure	TRPML1 inh	CtBP-E1A inh	PINK1 modulator	D2 agonist	TRPML1 agonist	Six1-Eya2 inh
CC(Sc1ccc([N+](=O)[O-])cn1)C(=O)Nc1nccs1 (centres undefined)	11	0	-0.2%	1.2	2.7	25
CC(=O)c1cccc(NC(=O)Cn2cnc3c2c(=O)n(C)c(=O)n3C)c1	4	.	1.8%	.	-0.1	.
CCOc1ccc(N=Nc2c(C)[nH]n(-c3ccccc3)c2=O)cc1	-5	-28	4.7%	5.4	-0.1	-8
CC(Sc1nnc(-c2ccco2)o1)C(=O)NCCC1=CCCCC1 (centres undefined)	-14	2	0.8%	-18	-1.2	0
CC(Oc1ccccc1)C(=O)OCC(=O)Nc1ccc2c(c1)OCO2 (centres undefined)	-16	1	4.7%	9.1	1.8	-1
CC(C)(C)n1nnnc1C(c1cccs1)N(Cc1ccccc1)Cc1cccnc1 (centres undefined)	-9	0	2.3%	-1.8	0.0	-1
CSc1ccccc1C(=O)NCCSC(C)(C)C	-2	5	-2.5%[38.3 µM]	-1.6	-0.8	-2
CCOC(=O)C(CC)Sc1ncnc2c1nnn2-c1ccc(F)cc1 (centres undefined)	39	9	5.3%	-4.3	0.9	2
CN(C)c1ccc(CNC(=O)c2ccc(Cn3c(SCc4ccccc4)nc4cccnc43)cc2)cc1	64	.	-0.4%	.	0.7	.
COc1ccccc1-c1ccc2c(c1)O[C@@H](CN(C)C(=O)Nc1cccc(F)c1)[C@H](C)CN([C@H](C)CO)S2(=O)=O	0	1	1.7%	-9.3	0.0	-1

Next section.
Structure	TRPML1 inh	CtBP-E1A inh	PINK1 modulator	D2 agonist	TRPML1 agonist	Six1-Eya2 inh
O=c1[nH]c(Cc2ccccc2)nc2c1oc1ccccc12	-8	7	-1.6%[38.3 µM]	-3.0	0.5	1
O=C(Nc1ccc(F)c(F)c1)c1cc(S(=O)(=O)NC2CCCC2)ccc1F	29	.	-0.6%	.	3.7	.
COc1cccc(C(=O)O[C@@H]2[C@H](Cc3ccccc3)NS(=O)(=O)[C@H]3C[C@@H]4C=C[C@]23O4)c1	0	-1	0.1%	-3.7	0.2	5
O=C(NCc1ccco1)c1ccc2sc([C@@H]3O[C@H](CO)[C@@H](O)[C@H]3O)nc2c1	.	-1	0.0%	-6.3	-0.1	-1
COCCN(C(=O)c1cc(CN2C(=O)c3ccccc3C2=O)ccc1OC)c1c(N)n(CC(C)C)c(=O)[nH]c1=O	14	8	-0.5%	3.2	-0.1	6
CCCS(=O)(=O)c1nc(S(=O)(=O)c2ccc(C)cc2)c(N2CCCC2)s1	17	7	2.1%	-4.4	0.1	4
NC(=O)CSc1nnc(-c2cc3ccccc3o2)n1Cc1ccccc1	2	5	0.5%	-2.0	-0.9	0
CN(Cc1ccccc1)C(=O)[C@@H]1CCCN1C(=O)OC(C)(C)C	.	-23	-0.3%	.	-0.4	11
CCNC(=O)N(CC)C[C@H]1N[C@@](C)(C(=O)OC)[C@H]2C(=O)N(Cc3ccccc3)C(=O)[C@@H]12	0	2	3.8%	-1.1	-0.8	16
COc1cccc(-n2cnc(=O)c3cccnc32)c1	-14	6	1.2%	3.2	-0.2	-6
COc1ccc(-n2c(C)nc3cc(C(=O)NC4CCCC4)ccc32)cc1	-3	.	-0.2%	.	-0.2	.
COc1ccc(OC)c(CCNC(=O)c2cc3cccc4c3n2CCS4)c1	31	.	1.9%	.	1.6	.

An excerpt of these results, with each value named.
O=C(Nc1ccc(F)c(F)c1)c1cc(S(=O)(=O)NC2CCCC2)ccc1F
  TRPML1 inh = 29	CtBP-E1A inh = .	PINK1 modulator = -0.6%	D2 agonist = .	TRPML1 agonist = 3.7	Six1-Eya2 inh = .

COc1cccc(C(=O)O[C@@H]2[C@H](Cc3ccccc3)NS(=O)(=O)[C@H]3C[C@@H]4C=C[C@]23O4)c1
  TRPML1 inh = 0	CtBP-E1A inh = -1	PINK1 modulator = 0.1%	D2 agonist = -3.7	TRPML1 agonist = 0.2	Six1-Eya2 inh = 5

Taken from above (two entries):
Structure	TRPML1 inh	CtBP-E1A inh	PINK1 modulator	D2 agonist	TRPML1 agonist	Six1-Eya2 inh
COc1cccc(-n2cnc(=O)c3cccnc32)c1	-14	6	1.2%	3.2	-0.2	-6
COc1ccc(-n2c(C)nc3cc(C(=O)NC4CCCC4)ccc32)cc1	-3	.	-0.2%	.	-0.2	.

Assay outcomes as filed in PubChem.
